# Sa growth inh – S. aureus growth inhibition at 42 and 30 °C, primary screen, LtaS inhibitor project, RN4220, two temperatures; OD600, 20 h, 42 °C; active compounds read low; relative growth, % (concentration not given with the values); actives 0.53% (n = 170,000);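 active means growth at 42 °C up to 50% and 20 or more points under that at 30 °C, or under 10% at both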;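 further: 300 nL library stock went into each well; scaled to the means of positive and negative controls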
# GIV-Gai inh – inhibitors of GIV peptide binding to Galpha-i3, primary screen, biochemical, fluorescence polarization, FITC-GIV GBA peptide, rat Galphai3 | 90 min; active compounds read low; scaled: aluminum fluoride 0%, vehicle 100% | percent of control (FP), % (no concentration beside the values) | actives 0.42% (n = 210,000) | AID 1224905, 2016;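 active means replicate mean at 85% of control or lower, very high polarization wells dropped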;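 further: wells of about 15 µL received 100 nL stock; the first replicate is given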
# Target sequence (P08753 whole entry, looked up): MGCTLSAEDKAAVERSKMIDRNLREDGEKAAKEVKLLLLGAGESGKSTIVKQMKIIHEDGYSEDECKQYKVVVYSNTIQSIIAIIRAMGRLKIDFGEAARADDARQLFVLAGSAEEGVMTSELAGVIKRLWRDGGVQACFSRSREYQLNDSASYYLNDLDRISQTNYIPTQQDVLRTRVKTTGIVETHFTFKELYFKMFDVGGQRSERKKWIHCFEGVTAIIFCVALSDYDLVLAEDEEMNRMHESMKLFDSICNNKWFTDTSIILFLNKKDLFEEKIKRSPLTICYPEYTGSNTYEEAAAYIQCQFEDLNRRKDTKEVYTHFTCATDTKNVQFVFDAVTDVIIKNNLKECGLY
# HCMV UL50-53 inh – inhibitors of HCMV UL50-UL53 interaction, biochemical, HTRF; HCMV UL50-UL53 nuclear egress complex (human cytomegalovirus); normalized percent inhibition; inhibition, % (no concentration beside the values); actives 0.15% (n = 190,000); AID 1918969, 2023;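 active means both replicates at 50% or more, plus weaker picks with an unusually low signal ratio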;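 further: stock transfer was 100 nL into about 20 µL; 0% = negative control wells and 100% = wells with untagged competitor protein; inactives centre near -12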
# Sa growth inh second temp – also measured in Sa growth inh; calls as there; relative growth, %; measured here: growth at 30 °C;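 optical density after 20 h as mean of two plates; 100% = untreated growth and lower means inhibition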
# Numbers without * were called inactive; nt = not tested or not shown. Not a hit list; any-hit rate near 0.79%.
SMILES,Sa growth inh,Sa growth inh second temp,GIV-Gai inh,HCMV UL50-53 inh
Cc1cc(C(=O)CCC(=O)N(C)Cc2c(C)nn(-c3ccccc3)c2C)c(C)s1,104,85,nt,2
CCCn1c(Cn2ccnc2C)nc2cc(NC(=O)C3CCCCC3)ccc21,nt,nt,104,-13
Cc1sc2ncn(CC(=O)OC3CCCCC3)c(=O)c2c1C,126,101,nt,3
Cc1ccc(C(=O)Nc2cc3nn(-c4ccccc4)nc3cc2Cl)c(C)c1,95,92,106,-18
N#Cc1ccc(-c2cccs2)nc1SCc1c(F)cccc1Cl,80,89,102,-16
CN(Cc1ccccc1)S(=O)(=O)c1ccc2[nH]c(=O)c(=O)[nH]c2c1,102,88,99,-27
CC1(C)Cc2c(sc3ncn4nc(-c5ccccc5O)nc4c23)C(C)(C)N1,nt,nt,102,-27
CCn1nc(C)c(CCNC(=O)NCCc2ccccc2)c1C,108,85,109,-33
COc1ccc(C2(C(=O)O)CCCC2)cc1OC,124,108,104,3
COC(=O)COc1ccc(NC(=O)c2ccccc2C)cc1,104,98,107,11
COc1ccc(C2CC(=O)C3=C(C2)Nc2onc(C)c2C3c2ccc(Br)cc2)cc1 (stereo unspecified),nt,nt,101,-3
COc1ccc(N(CC(=O)N2CCc3ccccc32)S(=O)(=O)c2c(C)nn(C)c2C)cc1,126,92,100,4
Cc1ccc(S(=O)(=O)Nc2nc(C)cc(NCCN)n2)cc1,nt,nt,106,4
Cc1ccc2c(c1)C=C(C(=O)Nc1ncc(Cc3ccc(F)cc3)s1)C=CO2,nt,nt,101,-12
O=C(Cc1cccs1)Nc1cccc(C(=O)O)c1,109,86,100,-16
CC(=O)N(C(C)=O)c1c(N2CCOCC2)c2ccccc2oc1=O,109,75,105,-16
CCCN(C(=O)Cn1ncc2c1-c1ccccc1OC2)c1cccc(C)c1,86,82,105,-8
COc1ccccc1NC(=O)CSCc1cc(=O)c2c(C)cc(C)cc2[nH]1,97,87,102,nt
COc1ccc(C2CC(c3ccc([N+](=O)[O-])cc3)=NN2C(=O)c2ccccc2)cc1OC (stereo unspecified),nt,nt,98,-18
CCOc1ccc(S(=O)(=O)N2CCOCC2)cc1-c1nc(C)no1,nt,nt,106,-16
CC1C(=O)N2CCCc3cc(S(=O)(=O)Nc4ccc(Br)cc4F)cc1c32 (stereo unspecified),95,86,106,nt
CC1CCN(c2nnc(-c3cccs3)c3ccccc23)CC1,29,34,103,nt
Cc1ccc(C)c(NC(=O)C2CCCN(c3ncnc4onc(C)c34)C2)c1 (stereo unspecified),93,86,102,nt
Cc1ccc(C(=O)NC(=O)c2ccccc2O)cc1,116,89,108,46
Cc1nnc(NC(=O)CCc2c[nH]c3ccccc23)o1,79,97,nt,-34
O=C(NCc1ccc(F)cc1)c1cc(-c2ccccc2)n[nH]1,93,106,101,8
O=C(NCCc1ccc(Cl)cc1)c1cnc2sc(N3CCCC3)nn2c1=O,90,89,104,nt
COc1ccccc1N1CCN(Cc2cc(COC(C)C)c3cccnc3c2O)CC1,115,85,98,-22
CCOC(=O)C(C)n1cnc2c(nnn2Cc2ccc(Cl)cc2)c1=O (stereo unspecified),104,91,100,3
FC(F)Oc1ccc(NC(=S)NNc2nc3ccccc3o2)cc1,69,67,nt,-22
CC(C)(C)c1cc(Sc2nc(N3CCOCC3)nc(N3CCOCC3)n2)cc(C(C)(C)C)c1O,94,94,nt,3
Cc1ccc(NC(=O)Cn2c(=O)c3nnc(CCC(=O)NC(C)C)n3c3ccccc32)cc1,nt,nt,111,-17
COc1cccc(OC)c1C(=O)N1CCCN(c2nc3ccc(Cl)cc3s2)CC1,97,84,104,-17
CN(Cc1ccccc1)C(=O)CN1CCN(Cc2ccc(Cl)cc2)C1=O,97,79,105,-21
COC(=O)c1ccc(CSc2nnc(Cc3cccs3)n2C2CCCCC2)o1,108,99,nt,-1
COc1ccccc1-n1c(C)nc2cc(C(=O)O)ccc21,96,92,105,nt
CCOc1ccccc1NC(=O)N1CCN(S(=O)(=O)c2ccc3c(c2)NC(=O)C(C)O3)CC1 (stereo unspecified),nt,nt,105,-18
C=CCn1c(COc2ccc(OC)cc2)n[nH]c1=S,121,63,103,-2
CCCn1c(NC(=O)CCC2CCCC2)nc2ccccc21,147,59,nt,-19
CCC(=O)Nc1nc2nc(C(C)(C)C)cc(=O)n2[nH]1,nt,nt,94,-15
O=S(=O)(Cc1ccccc1)N1CCn2c(nc3ccccc32)C1,89,87,96,nt
FC(F)(F)c1cc(-c2ccncc2)nc2c(-c3cccc(Cl)c3)cnn12,nt,nt,99,-13
O=C(O)C1CCCN(c2c(-c3ccccc3)c3cc(Cl)ccc3[nH]c2=O)C1 (stereo unspecified),60,42,107,nt
CCOc1ccc(-c2nnc(OC)c3ccccc23)cc1,79,67,105,-13
CCOC(=O)c1cc(-c2ccccc2)n(-c2cccc(C(=O)N(CC)c3ccccc3)c2)c1C,107,90,98,nt
CC(NC1CCCc2ccccc21)C(=O)NCc1ccc2c(c1)OCO2 (stereo unspecified),94,95,nt,-4
COc1cccc(-c2c3c([nH]c(=O)c2C#N)CCc2cc(OC)ccc2-3)c1,109,85,97,-6
O=S(=O)(c1ccc(-c2ccccc2)cc1)N1CCCC1,128,100,112,0
Cc1ccccc1Nc1cc(C(=O)NC2CCCCC2)c2ccccc2n1,95,103,100,13
CC(=O)c1cccc(NC(=O)c2sc(-n3nc(C)c(Cc4ccccc4)c3C)nc2C)c1,103,90,102,-9

# (cont.)
SMILES,Sa growth inh,Sa growth inh second temp,GIV-Gai inh,HCMV UL50-53 inh
CCOC(=O)/C(=C\c1ccsc1)C1=Nn2c(nnc2-c2ccc(OC)cc2)SC1,77,94,nt,-10
Cc1ccccc1-c1noc(N2CCC(C(=O)Nc3nc4ccccc4s3)CC2)n1,nt,nt,98,2
Cc1ccc(CNC(=O)CSc2nc(=O)n(Cc3ccco3)c3c2CCC3)cc1,92,80,108,nt
CCC(=O)N1CCc2cc(Br)cc(S(=O)(=O)N3CCC(C(=O)N(CC)CC)CC3)c21,91,84,101,-7
O=C(O)c1ccccc1C(=O)NCC(O)c1ccccc1 (stereo unspecified),86,79,101,-33
CCC(=O)N/C=C/n1cnc2cc(C(F)(F)F)ccc21,101,104,nt,11
Cc1nc(-c2cccc(NC(=O)Nc3ccc([N+](=O)[O-])cc3)c2)no1,67,50,101,nt
CC(C)Sc1n[nH]c(=O)n1C(C)C,116,90,99,-4
CC(=O)c1ccc(N2CCN(S(=O)(=O)c3cc(-c4onc(C)c4C)ccc3C)CC2)cc1,93,90,102,nt
Cc1noc(C)c1COc1ccc(C(=O)NCc2cccnc2)cc1,77,79,nt,-12
O=C(Cn1c2c(c(=O)n3ncnc13)CCC2)N1CCCCC1,nt,nt,103,-13
Cc1ccc2oc(-c3nnc(C(=O)NCCC(C)C)o3)c(C)c2c1,nt,nt,106,-16
C=CCc1ccccc1OCC(O)CN1CCNCC1 (stereo unspecified),99,95,104,-14
CC(=O)Nc1ccc(S(=O)(=O)c2ccc(NC(C)=O)cc2)cc1,90,88,nt,-41
O=C(Nc1cccc(C(F)(F)F)c1)c1ccc2ncccc2c1,87,84,98,-1
CCOC(=O)c1sc(NC(=O)Cn2nc(C(F)(F)F)cc2C)c(C(=O)OCC)c1C,nt,nt,101,-15
COc1ccc(Br)cc1CN1CCN(C(=O)c2cccc(OC)c2OC)CC1,87,89,104,-13
O=C(CNc1ccc2c(c1)OCCCO2)c1cc2cc(Cl)ccc2o1,84,89,100,-2
O=C(COC(=O)c1sc2ccccc2c1Cl)NCc1ccccc1,97,98,nt,10
O=C(Nc1nc2ccccc2s1)C1CC1,112,74,nt,2
COc1cccc(-n2c(SCC(=O)N3CCc4ccccc43)nc3c([nH]c4ccccc43)c2=O)c1,103,84,102,nt
COc1ccc(N2C(=O)c3c(c4ccccc4n3C)C2c2cccc(OC)c2)cc1 (stereo unspecified),126,98,98,nt
CC(=O)Nc1nc(-c2cccs2)cs1,100,99,102,nt
CC1Cc2cc(S(N)(=O)=O)ccc2N1Cc1cc(Cl)cc2c1OCOC2 (stereo unspecified),77,76,nt,-15
O=C(CCN1C(=O)c2ccccc2C1=O)N1CCN(Cc2ccc(Cl)cc2Cl)CC1,nt,nt,102,-4
COc1cc(OC)cc(-c2nc3n(n2)C(c2ccccc2F)C(C(=O)Nc2cccnc2)=C(C)N3)c1 (stereo unspecified),112,83,99,-15
O=C1CC(c2cc(F)cc(F)c2)Cc2nc(N3CCN(c4ccccc4)CC3)ncc21 (stereo unspecified),nt,nt,97,-14
CCCc1ccc(OCC(=O)Nc2sc3c(c2C(=O)OC)CCCCC3)cc1,95,82,106,-66
CN1CCc2nc(NC(=O)c3ccc(S(=O)(=O)N(C)C)cc3)sc2C1,106,94,nt,-18
CC(C)N(C(=O)NC(=O)c1ccc(F)cc1F)C(C)C,86,86,101,-37
COc1ccc(Cn2c(C(=O)O)c(CNCCc3cccs3)c3ccc(C)cc32)cc1,114,77,105,nt
Cc1cc(=O)[nH]c2nnc(SCc3ccc(C(F)(F)F)cc3)n12,85,106,96,nt
CC(C)CCn1c(=O)c2ccccc2n2c(=O)n(CC(=O)Nc3ccc4c(c3)OCCO4)nc12,nt,nt,101,-1
CC1(C)CC(=O)C=C(NCCc2ccccc2)C1,78,105,112,-12
COCc1ccc(C(=O)NCc2ccncc2)cc1,106,89,101,0
Cc1oc(C)c2c(=O)cc(-c3ccc4c(c3)OCO4)cc(OC(=O)c3ccc(F)cc3)c12,nt,nt,113,-28
Cn1c(CCC(=O)O)nc2ccccc2c1=O,102,105,nt,14
O=C1CN(C(=O)CN2c3ccc(Br)cc3-c3ccccc3S2(=O)=O)c2ccccc2N1,nt,nt,101,-15
CCOc1ccc(-c2c(C)nn3c(C)c(C(=O)NCc4cccnc4)cnc23)cc1OCC,nt,nt,106,-52
CCC(C)NC(=O)c1sc2nc(C)c(C(=O)Nc3ccc(C)cc3C)c(-c3ccc(Cl)cc3)c2c1N (stereo unspecified),92,76,101,2
COc1cc2c(NC(C)=O)c(CN(C)C)oc2c(Cl)c1Cl,82,90,nt,2
Oc1cccc(-c2nc(=S)c3c([nH]2)Oc2ccccc2C3)c1,105,81,107,-17
Cc1ccc2cc(CN(CCN3CCCC3)C(=O)NC3CCCCC3)c(=O)[nH]c2c1C,92,68,104,-16
O=C(c1ccc(Nc2nc(-c3ccccc3)c3cc(Br)ccc3n2)cc1)N1CCOCC1,88,82,nt,-21
C=CCNS(=O)(=O)c1ccccc1,106,89,nt,-2
Cc1noc(C)c1C(=O)c1c(C)[nH]n(-c2ccccc2)c1=O,98,98,105,-25
O=C(CN1CCOCC1)N/N=C/c1ccccc1,103,98,96,-9
CC(Oc1ccc(=O)n(-c2ccc(F)cc2)n1)C(=O)Nc1cccc2c1OCCO2 (stereo unspecified),nt,nt,106,-39
COc1ccc(-c2cc(C(=O)NCCc3ccc(Cl)cc3)[nH]n2)cc1,89,96,99,nt
Cc1ccc(C2C(=O)N(C3CCCCCC3)CC(=O)N2CCC2=CCCCC2)cc1 (stereo unspecified),110,84,104,nt

# The list continues.
SMILES,Sa growth inh,Sa growth inh second temp,GIV-Gai inh,HCMV UL50-53 inh
CCOc1ccc(NC(=O)Cn2c(C)ccc(C#N)c2=O)cc1,93,101,106,24
CN(C)CCNc1nc(-c2noc(NCCN(C)C)n2)no1,83,91,nt,-5
O=C(Nc1ccc(F)c(F)c1)C1CCCN(S(=O)(=O)c2cccc3nonc23)C1 (stereo unspecified),87,91,112,-8
Cc1cc(/C=C2/C(=O)NC(=O)N(c3ccccc3)C2=O)c(C)n1-c1ccc([N+](=O)[O-])cc1,nt,nt,100,-16
CC(c1ccccc1)n1c(C2CC(=O)N(c3ccccc3)C2)nc2ccccc21 (stereo unspecified),107,76,106,-6
CC12CCCCC1N(CC(N)=O)c1ccccc12 (stereo unspecified),120,89,nt,-5

# Screens deposited in PubChem by ICCB-Longwood Screening Facility, Harvard Medical School.
